gsp antagonist: antagonists of gsp mutant (McCune-Albright syndrome); gsp-mutant cells, cAMP HTRF, 30 min; control for the full effect not named in the record; actives 0.4% (n = 340,000); AID 624288; Potency, µM (titrated, usually from 76.9 µM), for inactives: at the highest dose activity change, negative = inhibition, hits mostly inhibitors; active = falling curve of any shape with a large fitted effect; inconclusive = falling curve, mostly with a smaller effect; inactive = flat or rising curve; cell line not stated here;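 note: intracellular cAMP measured with PDE inhibitor Ro 20-1724 present during compound exposure; potency is the fitted concentration of half-maximal effect; % is set by controls: 0 for no effect and ±100 for the full control effect; nearly all actives have a fitted effect of over 65% in size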
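Cells in G418 medium, seeded 16-24 h, 37C; buffer exchange to DPBS + 1 mM CaCl2, 0.5 mM MgCl2, 0.05% BSA; cpds in DMSO + […] (300 uM stock), 30 min 37C; HTRF cAMP detection.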
Menin MLL FP FL: inhibitors of human menin-MLL interaction, wild-type MLL peptide | FP activity change, % at 61.4 µM | Fluorescence polarization, fluorescein-MLL peptide displacement from menin | 290,000 tested, under 10 active; inconclusive = falling polarisation curve, or a change in total fluorescence; inactive = total fluorescence flat and polarisation flat or rising; no compound was filed as active; the % refers to the polarisation; negative = inhibition;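 note: % of control where 0% means no effect; inhibitors lower the polarisation; unlabelled MLL peptide was the positive control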
gsp ag: activates gsp, the McCune-Albright syndrome mutation; gsp mutant cells, cAMP HTRF, 30 min; control for the full effect not named in the record; Potency, µM (top dose mostly 76.9 µM), inactives show at the highest dose activation (cAMP increase), most hits filed as activators; actives 0.13% (n = 340,000); AID 624287; active = well fitted activation curve with a large enough effect; inconclusive = small, poorly fitted or top-dose-only effect, or another doubt; inactive = no such curve, though single readings can be large or run the other way; cell line not stated here;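 note: phosphodiesterase inhibitor Ro 20-1724 added with compounds to block cAMP breakdown; potency is the fitted concentration of half-maximal effect; nearly all actives have a fitted effect of over 60% in size; about a fifth of the inactives were tested at one dose only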
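Cells stably selected in G418 were plated at 2000/well, grown 16-24 hr, then given compounds in DMSO with the PDE inhibitor […] (300 uM solution added) for 30 min at 37C; cAMP was read by HTRF.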
ClpP mod: qHTS Assay for Activators of ClpP; ATP-dependent Clp protease proteolytic subunit (Bacillus subtilis (strain 168)), P80244; purified B. subtilis ClpP, FRET peptide cleavage, 20 min; Potency, µM (top dose mostly 57.5 µM), for inactives: at the top dose activity change, negative = active; actives 1.9% (n = 340,000); active = well fitted falling curve with a large enough effect; inconclusive = small, poorly fitted or top-dose-only effect; inactive = no such curve, though single readings can be large or run the other way; note: potency is the fitted concentration of half-maximal effect; the source files actives as falling curves though it sought activators and does not explain the sign; nearly all actives have a fitted effect of over 65% in size; many hits overshoot -100%
Target sequence (P80244 whole entry, looked up): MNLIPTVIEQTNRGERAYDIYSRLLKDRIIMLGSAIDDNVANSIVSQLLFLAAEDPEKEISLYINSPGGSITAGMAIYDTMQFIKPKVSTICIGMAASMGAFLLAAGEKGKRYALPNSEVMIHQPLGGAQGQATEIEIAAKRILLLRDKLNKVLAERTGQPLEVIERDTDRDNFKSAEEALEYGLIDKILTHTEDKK
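ClpP 10 microg/mL final, pH 8 Tris/KCl buffer with BSA, glycerol, Tween-20; compound pinned in; FRET-FV substrate; RT 20 min; Ex320/Em430; ΔFRET vs ADEP 5.8 microM, DMSO, no enzyme.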
D2 ag: activates the human D2 dopamine receptor; P14416; actives 0.084% (n = 360,000); AID 624465; DiscoveRx PathHunter D2 beta-arrestin, luminescence, 90 min; 100% = 57 uM dopamine signal; activation, % (test concentration not listed); in the data active = activation above about 40%; inconclusive = about 15% to 40%; inactive = below about 15%; note: compound concentration not given in the record; the text of the record calls up to 30% inactive
Target sequence (P14416 whole entry, looked up): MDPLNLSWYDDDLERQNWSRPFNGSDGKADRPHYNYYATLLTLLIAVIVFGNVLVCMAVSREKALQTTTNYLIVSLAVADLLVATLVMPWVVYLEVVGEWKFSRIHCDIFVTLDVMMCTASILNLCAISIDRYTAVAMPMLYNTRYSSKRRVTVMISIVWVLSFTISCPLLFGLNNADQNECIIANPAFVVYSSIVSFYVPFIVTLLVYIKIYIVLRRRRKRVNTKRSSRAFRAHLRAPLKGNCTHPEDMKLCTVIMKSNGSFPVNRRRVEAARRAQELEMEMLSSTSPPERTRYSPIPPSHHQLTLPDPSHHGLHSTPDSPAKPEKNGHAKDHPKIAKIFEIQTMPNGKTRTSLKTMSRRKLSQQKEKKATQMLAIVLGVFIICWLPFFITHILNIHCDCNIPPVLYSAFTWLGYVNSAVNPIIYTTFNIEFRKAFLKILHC
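DiscoveRx PathHunter D2 beta-arrestin cells (2,100/well) attached overnight, then compound-stimulated 90 min at 37 C in HBSS/10 mM HEPES/0.1% Tween-20 buffer; beta-galactosidase complementation read by luminescence after 1 h at ambient temperature. Dopamine 57 uM final (EC100) as control.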
PINK1 modulator: modulators of PINK1 expression | PINK1 immunofluorescence, high-content cytometry, 24 h | Potency, µM (titrated, usually from 76.6 µM), without a hit: at the highest dose activation (PINK1 increase), most hits filed as activators | actives 0.2% (n = 410,000) | AID 624263; active = well fitted activation curve with a large enough effect; inconclusive = small, poorly fitted or top-dose-only effect; inactive = flat fitted curve, though single readings scatter; cell line not stated here;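 note: potency is the fitted concentration of half-maximal effect; % of control where 0% means no effect; nearly all actives have a fitted effect of over 65% in size; a mitochondrial uncoupler was the plate control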
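A stable cell line was treated with compounds at 5 concentrations for 24 hours, with CCCP as control. PINK1 levels and mitochondrial localization were measured by immunofluorescence with mitochondrial, cell and nuclear markers after fixation, read by laser-scanning cytometry.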
Sfp PPTase inh: Sfp phosphopantetheinyl transferase inhibition; Q9F4F7; Biochemical Sfp PPTase activity, qHTS; Potency, µM, without a hit: max response, negative = inhibition, most hits filed as inhibitors; actives 3.5% (n = 310,000); active = well fitted inhibition curve with a large enough effect; inconclusive = small, poorly fitted or top-dose-only effect, or another doubt; inactive = no such curve, though single readings can be large or run the other way;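 note: the enzyme is Sfp with the accession as filed and its product quenches rhodamine fluorescence; potency is the fitted concentration of half-maximal effect; 0% = enzyme reaction without inhibitor and -100% = no enzyme wells; top concentration of the series not given in the record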
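Reaction rates are the 30-min fluorescence difference (ex 525, em 598 nm) in wells containing 15 nM Sfp, 5 uM rhodamine-CoA and 12.5 uM BHQ-2-YbbR at pH 7.6 with 10 mM MgCl2.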
Active calls of the source: *; ? = inconclusive; . = no result given; & = joins results of further samples; [ ] = dose if it differs, or a comment.

SMILES	gsp antagonist	Menin MLL FP FL	gsp ag	ClpP mod	D2 ag	PINK1 modulator	Sfp PPTase inh
Cn1cc(S(=O)(=O)N2CCCC2)cc1C(=O)N1CCN(c2cccc(Cl)c2)CC1	-6.2%	3.1	-0.4%	-0.1%&-0.1%	6.1	13.8%&1.5%	9.0%
CCCCC(C(=O)NCCC(C)C)N(CCCN1CCOCC1)C(=O)c1snc(C(N)=O)c1N (stereo not drawn)	-15.9%	-2.1	7.2%	-27.8%	0.2	-1.7%[38.3 µM]	13.5%
CS(=O)(=O)c1ccc(CNC(=O)C2(C(F)(F)F)CC(CCCO)CCCO2)cc1 (stereo not drawn)	0.9%	-4.6	.	-1.6%	-2.3	-2.2%	7.0%
COCCCNC(=O)c1csc([C@@H]2O[C@H](CO)[C@H](O)[C@H](O)[C@H]2O)n1	.	.	.	-0.6%	-7.3	2.1%	.
O=C(CSc1nnc(-c2ccccc2)c(-c2ccccc2)n1)NCc1ccco1	6.0%	0.7	20.1%	0.6%	-3.2	0.4%	?
Brc1cccc(-c2nnc3sc(CN4CCCCC4)cn23)c1	4.8%	-0.5	-16.3%	-2.9%	-2.9	8.7%[38.3 µM]	13.9%
COc1ccccc1NC(=O)CC(c1ccc(OC(C)C)cc1)c1ccccc1OC (stereo not drawn)	-9.6%	5.9	7.0%	2.8%	-1.8	0.6%	11.4%
O=S(=O)(c1ccccc1)N1CCN(C(=S)Nc2ccc(F)cc2)CC1	-11.2%	4.2	-16.6%	20µM*	0.6	0.9%	12.4%
CC1(C(=O)NS(=O)(=O)c2ccccc2)CCN1C(=O)c1cccc2ccccc12 (stereo not drawn)	.	.	.	1.3%	-4.3	1.6%	.
O=S1(=O)CC(N2CCN(CC3CC3)CC2)CN1Cc1cn(Cc2ccccc2C(F)(F)F)nn1 (stereo not drawn)	.	.	.	1.2%	2.8	-0.7%	.
O=C(OCC(=O)N1CCCCCC1)c1cccc(Cl)c1Cl	.	.	7.9%	-2.0%	-4.9	-0.5%	.
CCN(CC)S(=O)(=O)c1cc(NC(=O)CSc2nc3c(cc2C#N)C(=O)CC(C)(C)C3)ccc1C	-23.8%	-0.4	-2.8%[15.4 µM]	-1.5%	-3.0	7.0%	5.7%
CNC(=O)c1cccc(NC(=O)CCCNC(=O)c2ccc(Cl)cc2)c1	12.4%	-2.1	-40.6%[inhibitor]	.	2.1	-0.3%	5.9%
COc1ccc(N2CCN(C(=O)c3ccc(-c4ccccc4)cc3)CC2)cc1	7.2%	-0.3	-9.0%	1.1%	-2.1	2.1%	14.1%
O=C1NC(=O)C2C1C(c1ccc([N+](=O)[O-])cc1)=NN2Cc1ccccc1 (stereo not drawn)	-11.9%	?	-17.9%	-3.4%	2.1	-0.2%	8.3%
Cc1ccccc1Cc1c(C)nc2c(C(=O)NCc3ccc4c(c3)OCO4)cnn2c1C	-11.7%	5.2	-30.3%[inhibitor]	104.1%	2.2	12.2%[38.3 µM]	-8.1%
CCOc1cc(/C=N/NC(=O)C(O)(c2ccccc2)c2ccccc2)ccc1OC(=O)c1ccco1	-20.0%	.	21.2%[15.4 µM]	.	3.4	1.3%	.
COc1ccc(NC(=O)N(O)C2(C#N)CCCCC2)cc1	3.6%	.	-0.7%	-2.0%	0.6	2.7%	.
CCC1CCCCN1C(=O)c1cc(COc2ccc(-n3cncn3)cc2)on1 (stereo not drawn)	-10.4%	.	15.1%[15.4 µM]	2.7%	1.3	-0.1%	5.2%
CCC1NC(=O)c2cccnc2-n2c1nc1cc(OC)c(OC)cc1c2=O (stereo not drawn)	.	.	?	-0.5%	-4.2	-0.2%	.
CCOCCCNC(=O)CN1C(=O)COc2ccc(S(=O)(=O)N3CCC(C)CC3)cc21	-5.7%	.	?	-0.9%	-6.4	-1.9%	0.5%
Cc1cccn2cc(CCNS(=O)(=O)c3ccc([N+](=O)[O-])cc3)nc12	8.1%	-2.7	-7.4%	0.9%	6.2	-0.6%	6.9%
CC1CCCCN1C(=O)CNCc1ccc(F)cc1 (stereo not drawn)	3.9%	-0.7	10.1%[15.4 µM]	-0.7%	-4.9	1.3%	0.0%
O=C(CSc1nc2ncccc2[nH]1)Nc1ccc2c(c1)OCCO2	-0.5%	2.8	0.6%	1.3%	-10.3	0.2%	-9.9%
Cc1nc(N2CCN(c3ccccc3F)CC2)[nH]c(=O)c1C	-0.8%	-2.0	-25.6%	0.7%	0.6	6.0%	-0.2%
COc1ccc(C(=O)N2CCCC2(C#N)c2ccccc2)cc1[N+](=O)[O-] (stereo not drawn)	-2.4%	4.3	11.4%	1.8%	-12.6	3.9%	9.0%
Cn1cnnc1SCC(=O)Nc1nc(-c2ccccc2)cs1	-9.3%	-0.5	-9.3%[15.4 µM]	.	-4.0	1.5%	-25.7%
COc1ccc(-c2ccc(C(=O)O)c(=O)[nH]2)cc1	13.1%	-2.1	16.0%[15.4 µM]	.	-4.1	-0.3%	16.4%
C=CCn1c(C(C)NC(=O)COC)nc2ccccc21 (stereo not drawn)	-1.8%	2.3	-65.2%[inhibitor]	-0.3%	-3.4	-0.1%	12.5%
Cc1c(Cl)cccc1N=C1SCCN1C(=O)CN1C(=O)NC2(CCCC2)C1=O	-20.5%	.	-0.1%[15.4 µM]	1.9%	-5.6	14.0%	.
O=C(NCCC1CCCCN1S(=O)(=O)c1ccccc1)C(=O)NCCN1CCOCC1 (stereo not drawn)	4.3%	.	?	-4.0%	-9.3	4.1%	.
O=C(NC1CCCCC1)C(c1ccccn1)N(C(=O)Cc1cccs1)c1ccc(Cl)cc1 (stereo not drawn)	-31.3%	0.7	-13.2%	-1.6%	-0.9	16.8%[38.3 µM]	12.3%
COc1nc(-c2ccc(Cl)cc2)nnc1C	-2.8%	-3.0	8.5%	.	4.1	8.0%	-16.4%
O=c1cnc2cnc(N3CCOCC3)nc2n1Cc1ccc(F)cc1	.	?	.	.	.	-0.1%	1.9%
COCCCN(C(=O)Nc1ccccc1)C(C)c1ccncc1 (stereo not drawn)	-2.6%	-2.4	0.2%	-1.3%	3.9	-1.0%	14.8%
CCCCCCCCNc1ccccc1S(=O)(=O)NCc1ccccc1	5.4%	.	.	31.6µM*	-2.5	?	.
COc1ccc(-c2cc3nc(C)cc(N4CCN(C(=O)c5ccco5)CC4)n3n2)cc1	.	.	?	4.4%	-0.6	14.0%	.
O=C(O)c1[nH]c2ccccc2c1NS(=O)(=O)Cc1ccccc1	-3.3%	3.8	-1.6%	28.2µM*	0.0	1.2%	26.5%
Fc1ccc(C(c2nnnn2Cc2ccco2)N2CCN(C3CCCCC3)CC2)cc1 (stereo not drawn)	-6.8%	-1.4	-25.2%	0.6%	-3.3	0.3%	13.6%
COC(=O)c1ccc(OC(=O)c2cccnc2SC)cc1	-0.2%	-0.8	-1.3%	.	-2.6	2.6%	-1.9%
Cc1cc(NC(=O)CSc2nc(-c3ccccc3)nc3c2c(=O)n(C)c(=O)n3C)no1	1.6%	0.3	-10.5%	-0.3%	1.9	3.3%	5.8%
Cc1ccc(-c2nnc(SCC(=O)N/N=C/c3cccs3)n2-c2ccc(C)cc2)cc1	?	5.4	-27.6%	3.5%	0.9	7.2%	1.0%
CCOC(=O)C1(Cc2ccc(OC)cc2)CCN(S(C)(=O)=O)CC1	8.1%	-0.3	-27.6%	-1.1%	-0.6	-1.3%	10.3%
COc1ccc(-c2cccc3c2C2CC3CCN2C(=O)OCc2ccccc2)cc1 (stereo not drawn)	-12.3%	.	.	-2.4%	-2.8	2.4%	.
CC(=O)Nc1sc2c(c1C#N)CCCC2	3.5%	?	7.1%	-1.7%	-2.5	-0.5%	6.2%
Cc1cc(OC(=O)c2ccc(F)cc2)c([N+](=O)[O-])c(=O)[nH]1	7.5%	.	-16.0%	0.4%	-3.8	1.0%	3.7%
O=C(O)c1ccccc1NC(=O)c1ccccc1-c1ccccc1C(=O)O	-3.8%	-1.5	-12.9%	1.4%	-4.5	1.9%	0.8%
Cc1[nH]n(C2=NCCS2)c(=O)c1N=Nc1cccc(C(F)(F)F)c1	4.5%	-1.9	-20.7%	1.2%	-16.6	0.2%	11.9%
O=C(COC(=O)c1ccc(NS(=O)(=O)c2cccs2)cc1O)Nc1nc2ccccc2s1	?	4.7	-1.8%	-2.2%	-2.6	1.6%	28.5%
CSc1nnc(C(C)c2ncc(C(F)(F)F)cc2Cl)n1C (stereo not drawn)	2.2%	0.4	-13.7%[15.4 µM]	.	-2.6	0.8%	11.4%
COc1ccc(CCNc2nc(-c3ccc(F)cc3)c(CC(=O)O)s2)cc1OC	-21.7%	6.8	5.6%[15.4 µM]	.	-3.0	-0.1%	35.5µM*
COc1cc(OC)cc(C(=O)N[C@H](C(=O)NCc2ccc(F)cc2)C(C)C)c1	-0.1%	15.1	6.7%	.	-0.9	3.3%	3.4%
CCC(Sc1nc(C)cc(=O)[nH]1)C(=O)Nc1nc2c(s1)CCCC2 (stereo not drawn)	-17.4%	0.2	-45.8%[inhibitor]	1.0%	1.5	-3.6%[38.3 µM]	-5.3%
COc1cc(/C=N/NC(=O)C(Cc2c[nH]c3ccccc23)NC(=O)OCC(C)C)cc([N+](=O)[O-])c1O (stereo not drawn)	?	-2.4	-0.3%[15.4 µM]	-0.3%	-5.0	7.8%	2.4%
CSc1nnc(-c2cccc(C)c2)n1N	-0.9%	0.3	?	3.6%	-0.3	0.6%	14.0%
COc1ccc(C2=CC(=O)C[C@H](c3ccc4c(c3)OCO4)C2)cn1	-15.8%	.	-15.0%	-0.3%	0.6	3.6%	.
Cc1ccccc1NC(=O)CSC(=O)c1ccccc1	6.2%	.	-46.6%[inhibitor]	0.1%	-5.0	5.6%	.
O=C1c2ccccc2C(=O)N1CCOc1cccc(Br)c1	-24.0%	.	?	2.5%	-4.9	-0.8%	10.1%
C=CCn1c(SCc2cc(=O)n3cc(C)ccc3n2)nnc1-c1ccc(F)cc1	-1.4%	6.0	-0.7%[15.4 µM]	0.2%	3.5	1.7%	2.1%
O=C(NCCCN1CCOCC1)c1c(F)c(F)c(F)c(F)c1F	-0.3%	-1.8	-2.6%[15.4 µM]	2.2%	2.1	-0.4%	12.8%
O=C(CSCc1ccccc1)Nc1ccc(F)c(F)c1	2.6%	6.7	-16.2%	-0.9%	-2.0	3.7%	-2.0%

Screening results from PubChem.
